Vaccinia Venus: vaccinia inhibition (Venus reporter) | Potency, µM (highest dose often 36.5 µM), inactives show at the highest dose activity change, negative = inhibition, actives largely listed as inhibitors | hit rate 0.46% among 330,000 | Vaccinia virus Venus reporter expression, fluorescence | AID 720580; active means well fitted inhibition curve with a large enough effect; inconclusive means small, poorly fitted or top-dose-only effect; inactive means no such curve, though single readings can be large or run the other way; tested in A549 cells; further: nearly all actives have a fitted effect of over 30% in size; inactives centre near -10
Vaccinia mCherry: inhibitors of vaccinia virus infection (mCherry reporter signal) | Vaccinia virus mCherry reporter infection, fluorescence; about a quarter of the inactives have no number | Potency, µM (titrated, usually from 36.5 µM), inactives show top-dose activity change, negative = inhibition, hits mostly inhibitors | hit rate 0.63% among 310,000; active = well fitted inhibition curve with a large enough effect; inconclusive = small, poorly fitted or top-dose-only effect; inactive = no such curve, though single readings can be large or run the other way; tested in A549 cells; further: nearly all actives have a fitted effect of over 35% in size; inactives centre near -10
Active calls of the source: *; i = inactive; ? = inconclusive; . = no result given; & = joins results of further samples; [ ] = dose if it differs, or a comment. On the % scale 0 is the no-effect control and ±100 the full control effect; potency means the concentration at half of the fitted maximal effect.

SMILES	Vaccinia Venus	Vaccinia mCherry
Cc1[nH]c2ccccc2c1C(C[N+](=O)[O-])c1cccc(O)c1 (configuration not stated)	-23%	-26%
CC(C)(C)NC(=O)C[C@H]1C[C@H](C(=O)N2CCOCC2)[C@@]2(C)c3[nH]c4ccc(Cl)cc4c3CCN2C1=O	-16%	-14%
CCN(CC)CCCN=C(C)C1=C(O)c2ccccc2C1=O	-6%	-7%
CCOC(=O)C1=CCC(c2ccccc2)N(S(=O)(=O)c2ccc(C)cc2)[C@H]1CC (some centres not stated)	-24%	-11%
Cc1cc(C(=O)OCC(=O)NCc2ccccc2)c2ccccc2n1	-10%	-14%
Cc1cccc(N2CCN(CC(O)COCc3cccs3)CC2)c1C (configuration not stated)	1%	-8%
Cc1ccccc1Nc1cc(=O)oc2ccccc12	-13%	-9%
CCc1cc(=O)oc2cc(OCC(=O)NCc3ccccn3)ccc12	2%	-13%
Cc1cc(C)c(C(=O)Nc2ccc(S(=O)(=O)Nc3onc(C)c3C)cc2)c(C)c1	-6%	i
CCC(C)c1ccc(NC(=O)c2c([N+](=O)[O-])cnn2CC)cc1 (configuration not stated)	-12%	-5%
c1ccc(-c2ccccc2OCCCN2CCCCCC2)cc1	-27%	?
COC(=O)Cn1c(C)nc(=O)c(-c2ccccc2)c1C	0%	.
O=S1(=O)CC(c2ccccc2)=NN=C(c2ccccc2)C1	-8%	-14%
COc1cccc(-c2nnc(NC(=O)c3ccc(Cl)s3)o2)c1	-17%	-5%
O=C(c1ccoc1)N1CCN(c2cc(-c3ccccc3)nc3cc(-c4ccc(Br)cc4)nn23)CC1	-24%	-20%
Cc1nc2c(-c3ccccc3)c(C)nn2c(C)c1CCC(=O)NCc1ccccc1	1%	0%
Cc1cccc(NC(=O)CS(=O)(=O)c2cccc3nsnc23)c1	-14%	-13%
COc1ccc2nc(C)c3c(c2c1)OC(C)C3 (configuration not stated)	-11%	.
O=C(Nc1ccc(S(=O)(=O)C(F)F)cc1)c1ccc2c(=O)n3c(nc2c1)CCC3	-13%	-8%
CCSc1nnc(CNC(=O)c2ccccc2F)n1-c1ccccc1OC	-4%	-13%
Cc1ccc(-c2cc(-c3ccccc3C)[nH]n2)c(O)c1	?	.
O=C(O)c1cccc(-n2c(/C=C/c3ccccc3)nc3ccccc3c2=O)c1	-15%	-4%
CCOC(=O)C1=CCN(S(=O)(=O)c2ccc(Cl)cc2)C1c1ccccc1 (configuration not stated)	-9%	5%
COc1ccc(N(CC(=O)Nc2ccc3c(c2)OCO3)S(=O)(=O)c2ccccc2)cc1	-4%	i
O=C(Nc1cc(Cl)ccc1Cl)C1Cc2ccccc2O/C1=N\O (configuration not stated)	-13%	i

Full records as entered above:
CCN(CC)CCCN=C(C)C1=C(O)c2ccccc2C1=O is entered as Vaccinia Venus = -6%; Vaccinia mCherry = -7%
COc1cccc(-c2nnc(NC(=O)c3ccc(Cl)s3)o2)c1 is entered as Vaccinia Venus = -17%; Vaccinia mCherry = -5%
COc1ccc2nc(C)c3c(c2c1)OC(C)C3 (configuration not stated) is entered as Vaccinia Venus = -11%; Vaccinia mCherry = .

Going on with the list:
SMILES	Vaccinia Venus	Vaccinia mCherry
Cc1cccc(C(=O)NC2CC3CCCC(C2)N3C(=O)Nc2ccccc2)c1 (configuration not stated)	-10%	-12%
COc1ccc(-c2csc(-c3ccc(O)cc3)n2)cc1	?	3.5µM*
Cc1cccc(C)c1OCC(O)CN1CCc2ccccc2C1 (configuration not stated)	-3%	-10%
COC(=O)c1c(NC(=O)/C(C#N)=C/c2ccccc2)sc2c1C(C(=O)OC)CC2 (configuration not stated)	4%	-2%
CN(C)/C(=C\C(=O)c1ccccc1)C(=O)c1ccccc1	-4%	i
CC1Cc2cc(/C(O)=C3/C(=O)C(=O)N(CCN4CCOCC4)C3c3ccc(C(C)C)cc3)ccc2O1 (configuration not stated)	-5%	i
CC(C)C[C@H](NC(=O)[C@H](Cc1ccccc1)NC(=O)CNC(=O)[C@H](CS)N(C(=O)[C@@H](N)Cc1ccc(O)cc1)C(C)(C)C)C(=O)N([C@H](C(=O)O)[C@H](C)O)C(C)(C)C	-11%[3.33 µM]	i[3.33 µM]
COc1ccccc1C(=O)COC(=O)CNS(=O)(=O)c1ccc(C)c(C)c1	-6%	0%
COc1ccc(-c2c(C)n([O-])c3c([n+]2=O)CCCC3)c(OC)c1	-1%	2%
Cn1nnnc1SCCCNCc1cccc(OCc2ccccc2Cl)c1	-10%	-17%
COc1ccc(C(=O)n2nc(-c3ccco3)nc2NCc2cccs2)cc1	-13%	-9%
C=CCn1c(SCC(=O)NCCC2=CCCCC2)nc2ccc(Cl)cc2c1=O	-12%	-8%
CC(=O)c1ccc(OCCCC(=O)Nc2cccc(S(=O)(=O)N3CCCCC3)c2)cc1	-16%	i
N#CC(C#N)=NNc1ccc(S(N)(=O)=O)cc1	-6%	-8%
Cc1ccc(/C=C/c2onc(C)c2S(=O)(=O)N2CCC(C(=O)NCc3ccc(OC(C)C)cc3)CC2)cc1	-11%[7.34 µM]	-11%[7.34 µM]
CCOc1ccc(C2C(C(=O)OC)=C(C)N=C3SCCC(=O)N32)cc1OCC (configuration not stated)	-19%	.
CN(C)c1ccc(NC(=O)N2CCOCC2)cc1	-6%	-10%
COc1ccc(N2CCN(C(=O)c3ccc(Cn4c(=S)[nH]c5ccc(N6CCOCC6)cc5c4=O)cc3)CC2)cc1	-17%	-22%
CCN1CCc2c(sc(NC(=S)NC(=O)c3cccc(F)c3)c2C(N)=O)C1	-7%	i
Cc1cc(SCC(=O)Nc2ncc(Cl)cc2Cl)nc2ccccc12	-7%	i
Cc1ccc(NC(=O)CN(C)C(=O)Cc2coc3cc(C)c(C)cc23)cc1	-19%	-13%
Cc1cccc(NC(=O)N2CCCc3ccccc32)c1C	-6%	-5%
Cc1ccccc1N(CC(=O)N1CCN(Cc2ccccc2)CC1)S(C)(=O)=O	-6%	-13%
CCOc1ccccc1NC(=O)CNC(=O)Cc1ccccc1	-5%	i
CCOc1cc(CNn2cnnc2)ccc1OCC(=O)NC1CCCCC1	-2%	i

The list goes on.
SMILES	Vaccinia Venus	Vaccinia mCherry
CN(C)c1ccc(CNC(=O)CN2C(=O)CCn3nc(-c4cn(C)c5ccccc45)cc32)cc1	9%	-10%
CC(C)=CCc1c(O)cc2c(=O)c3ccc(O)cc3oc2c1O	-16%	-23%
O=C(O)c1cc2ccccc2c(=O)s1	-7%	-3%
CN1CCN(C(=O)c2cccc(NS(=O)(=O)c3ccc(Br)cc3)c2)CC1	-10%	-14%
Cc1onc(-c2c(Cl)cccc2Cl)c1C(=O)c1ccccc1	-4%[7.34 µM]	i[7.34 µM]
O=C(CCc1ccc(O)c(O)c1)NNC(=S)Nc1ccc(Br)cc1Cl	-23%	-1%
Oc1ccccc1-n1c(-c2ccccc2)ccc1-c1ccccc1	?	?
CC(OC(=O)c1oc2ccccc2c1CSC1CCCCC1)C(=O)NC(N)=O (configuration not stated)	-7%	-9%
COc1ccc(N(CC(=O)NCC2CCCO2)S(=O)(=O)c2ccccc2)cc1OC (configuration not stated)	-7%	i
CC(C)c1cc(/C=C(\C#N)C(=O)NCCCc2ccccc2)cc(C(C)C)c1O	-29%	-12%
C#CCNC(=O)C1=C[C@H](c2cn(C(C)=O)c3ccccc23)C[C@H](OCc2ccc(CO)cc2)O1	-23%	i
Cc1ccc(-c2nc3ncccn3c2NC(=O)C2CC2)cc1	-10%	.
CCC(C)N=C1Sc2nc3ccc(C)cc3cc2CN1CCOC (configuration not stated)	-12%	-4%
Nc1ccc(/C=C/c2ccc3ncccc3c2)cc1	-16%&-13%	-13%&-14%
CCCc1nn(C)c(C(=O)Nc2cccc(Cl)c2)c1Cl	-13%	-4%
O=C1C=C(c2ccc(CO)cc2)C[C@@H](c2ccc(F)cc2)C1	-10%	?
Cc1cccnc1NC(=O)C1c2ccccc2Oc2ccccc21	-8%	i
CN(Cc1ccccc1F)C(=O)c1cccc(NC(=O)CC2SC(N3CCCCC3)=NC2=O)c1 (configuration not stated)	-12%	-12%
CCC(C)(C)n1nnnc1CN(Cc1cccs1)Cc1cc2cc(OC)ccc2[nH]c1=O	-17%	-13%
NC(=O)c1cn(C2OC(CO)C(O)C2O)c2ncnc(N)c12 (configuration not stated)	0.32µM*	0.32µM*
CCN(CC)CCN1C(=O)C(=O)/C(=C(/O)c2cnn(-c3ccccc3)c2C)C1c1cccnc1 (configuration not stated)	-7%	-9%
Nc1c(C(=O)c2ccccc2)sc2nsc(SCCN3CCCC3)c12	?	-52%
COC(=O)c1cc(C)nc(Sc2ccccc2N)n1	-7%	-11%
OCCN1CCN(c2ncnc3c2cnn3-c2cccc(Cl)c2)CC1	8%	-10%
CCOc1cc(CNC(=O)NC2COc3ccccc3C2)cc(OCC)c1OCC (configuration not stated)	-1%	-7%

Next section; it opens with the six that closed the last part.
SMILES	Vaccinia Venus	Vaccinia mCherry
NC(=O)c1cn(C2OC(CO)C(O)C2O)c2ncnc(N)c12 (configuration not stated)	0.32µM*	0.32µM*
CCN(CC)CCN1C(=O)C(=O)/C(=C(/O)c2cnn(-c3ccccc3)c2C)C1c1cccnc1 (configuration not stated)	-7%	-9%
Nc1c(C(=O)c2ccccc2)sc2nsc(SCCN3CCCC3)c12	?	-52%
COC(=O)c1cc(C)nc(Sc2ccccc2N)n1	-7%	-11%
OCCN1CCN(c2ncnc3c2cnn3-c2cccc(Cl)c2)CC1	8%	-10%
CCOc1cc(CNC(=O)NC2COc3ccccc3C2)cc(OCC)c1OCC (configuration not stated)	-1%	-7%
COc1ccc(Cl)cc1NC(=O)c1cnc(SC)nc1-c1ccccc1	-2%	-13%
CCNCc1nc2cc(Cl)ccc2c(=O)[nH]1	-20%	-11%
O=C(C=NNc1ccccc1)c1ccccc1	0%	-22%
O=C(O)CCC(=O)Nc1ccc(C(=O)OCC(=O)c2ccc(Cl)cc2Cl)cc1	-10%	-7%
O=C(NCc1ccccc1Cl)c1cnc2n(c1=O)CCS2	-8%	-12%
COc1ccc(N2CCN(C(c3cccs3)C(C)NC(=O)c3ccco3)CC2)cc1 (configuration not stated)	-13%	-17%
Cc1ccc(SCCC(=O)NCc2ccccn2)cc1	7%	-10%
O=C(CSc1ccc2nnc(CCNC(=O)c3ccc(F)cc3)n2n1)NCc1ccco1	-5%	-1%
CC1CCCCC1NC(=O)c1ccc(S(=O)(=O)NNC(=O)c2ccncc2)cc1 (configuration not stated)	2%	i
CN(C)CCN(C(=O)c1cccs1)c1nc2cc3c(cc2s1)OCCO3	5%	-13%
CCN1CCN(c2ncc(C(=O)N3CCCc4ccccc43)c3ccccc23)CC1	-21%	-12%
COc1ccc(N2CCN(C(=O)COCC(=O)O)CC2)cc1	-9%	i
COc1ccc2c(c1)CCc1cnc(-n3ncc(C(=O)NCCN4CCOCC4)c3C)nc1-2	-12%	-25%
CC(OC(=O)C1CCN(S(=O)(=O)c2ccc(Cl)cc2)CC1)C(=O)NC1CCCCC1C (configuration not stated)	-11%	i
CC(C)(C)NC(=O)C(c1cccs1)N(Cc1ccc(F)cc1)C(=O)c1csnn1 (configuration not stated)	-2%	-8%

3 entries from above, comma-delimited:
structure,Vaccinia Venus,Vaccinia mCherry
CCN1CCN(c2ncc(C(=O)N3CCCc4ccccc43)c3ccccc23)CC1,-21%,-12%
COc1ccc(N2CCN(C(=O)COCC(=O)O)CC2)cc1,-9%,i
COc1ccc2c(c1)CCc1cnc(-n3ncc(C(=O)NCCN4CCOCC4)c3C)nc1-2,-12%,-25%

Arranged by length of the SMILES (smallest number first): 3 of the compounds above
SMILES	Vaccinia Venus	Vaccinia mCherry
O=C(NCc1ccccc1Cl)c1cnc2n(c1=O)CCS2	-8%	-12%
CN(C)CCN(C(=O)c1cccs1)c1nc2cc3c(cc2s1)OCCO3	5%	-13%
O=C(CSc1ccc2nnc(CCNC(=O)c3ccc(F)cc3)n2n1)NCc1ccco1	-5%	-1%

Compound activity deposited in PubChem by National Center for Advancing Translational Sciences (NCATS).
